Sa growth 42C – inhibitors of Staphylococcus aureus growth at 42 °C | S. aureus RN4220 growth, OD600, 20 h; stronger effect = lower value | 170,000 compounds, 0.53% hits | AID 720641 | relative growth, % (concentration not given with the values);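 active = growth at 42 °C up to 50% and 20 or more points under that at 30 °C, or under 10% at both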;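 note: 300 nL library stock went into each well; scaled to the means of positive and negative controls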
GIV-Gai inh – inhibitors of GIV GBA-motif binding to rat Galpha-i3; percent of control (FP), % (no concentration beside the values); 210,000 compounds, 0.42% hits; P08753; Galpha-i3/FITC-GIV peptide fluorescence polarization, 90 min; stronger effect = lower value; scaled: aluminum fluoride 0%, vehicle 100%;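 active = replicate mean at 85% of control or lower, very high polarization wells dropped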;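 note: wells of about 15 µL received 100 nL stock; the first replicate is given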
Target sequence (P08753 whole entry, looked up): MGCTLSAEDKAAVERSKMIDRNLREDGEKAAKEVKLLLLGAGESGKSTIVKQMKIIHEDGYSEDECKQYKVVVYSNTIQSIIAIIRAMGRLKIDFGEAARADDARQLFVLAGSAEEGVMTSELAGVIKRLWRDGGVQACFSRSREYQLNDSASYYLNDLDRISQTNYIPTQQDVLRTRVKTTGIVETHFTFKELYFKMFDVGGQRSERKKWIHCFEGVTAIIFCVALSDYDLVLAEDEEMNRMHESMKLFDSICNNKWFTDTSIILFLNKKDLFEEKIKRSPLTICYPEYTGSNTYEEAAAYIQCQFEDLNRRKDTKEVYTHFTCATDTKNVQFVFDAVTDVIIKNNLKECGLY
HCMV NEC inh – inhibitors of HCMV UL50-UL53 nuclear egress complex interaction | HTRF UL50-UL53 interaction, normalized percent inhibition | inhibition, % (test concentration not listed) | 190,000 compounds, 0.15% hits;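 active = both replicates at 50% or more, plus weaker picks with an unusually low signal ratio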;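 note: stock transfer was 100 nL into about 20 µL; 0% = negative control wells and 100% = wells with untagged competitor protein; inactives centre near -12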
Sa growth 42C second temp – recorded beside Sa growth 42C, whose call it bears; relative growth, %; measured here: growth at 30 °C;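 optical density after 20 h as mean of two plates; 100% = untreated growth and lower means inhibition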
The depositor's hits bear a star; / = not tested or not shown; & = joins results of further samples.

Structure | Sa growth 42C | Sa growth 42C second temp | GIV-Gai inh | HCMV NEC inh
COC(=O)C1=C(O)CSC1=Nc1ccccc1 | 105 | 86 | 107 | 13
CCOc1ccc(NC(=O)CN(C)S(=O)(=O)c2cnc[nH]2)cc1 | 101 | 81 | 107 | -28
Cc1ccc(CNC(=O)c2cc3sc(Cl)cc3n2C)cc1 | 106 | 86 | 101 | -28
c1cc2c(cc1C1CC1)OCCO2 | 97 | 96 | 109 | 8
CSc1nc(C23CC4CC(CC(C4)C2)C3)ccc1C#N | 107 | 96 | 96 | -21
Cn1ccc2cc(S(=O)(=O)N3CCCN(C(=O)Nc4ccc(Br)cc4)CC3)ccc21 | 98 | 87 | 100 | /
Cc1ccc(/C=[N+](\[O-])c2ccccc2C)o1 | 90 | 82 | 102 | -15&-46
Cc1cc(N2CCCC2)n2nc(C(F)(F)F)c(-c3ccc(Cl)cc3)c2n1 | / | / | 100 | -6
O=c1c2cnc3ncnn3c2ccn1C1CC1 | / | / | 100 | -32
CCC1Cn2c(C(=O)NCCc3c[nH]c4ccccc34)cc3cccc(c32)O1 (stereo unspecified) | / | / | 105 | -13
CC1CCCCC1NC(=O)CCCn1c(=O)[nH]c2ccsc2c1=O (stereo unspecified) | 98 | 91 | 97 | /
O=C(O)c1cc(S(=O)(=O)NNc2ccc(Cl)cc2)ccc1O | 94 | 92 | / | -14
Cc1ccc(CN2CC(C(=O)N3CCCc4ccccc43)CC2=O)cc1 (stereo unspecified) | 70 | 88 | / | -29
O=C(CCCn1c(=O)c2cccn2c2ccccc21)NC1CCCCC1 | 88 | 82 | 99 | -18
COc1cccc(CCNC(=O)CCCn2c3ccccc3c3cnn(C)c(=O)c32)c1 | / | / | 99 | -32
COc1ccccc1CNc1nc2ccccc2nc1S(=O)(=O)c1ccc(C)cc1 | / | / | 114 | -22
O=S(=O)(NC1CCCCC1N1CCC(O)CC1)c1ccc(Cl)cc1 (stereo unspecified) | 97 | 97 | 100 | 2
Cc1ccc(C=Nc2ccccc2C(N)=O)s1 | 87 | 65 | 110 | 6
COc1ccc(NC(=O)Cn2cnc3ccc(S(=O)(=O)N4CCC(C)CC4)cc3c2=O)cc1Cl | 99 | 101 | 102 | 13
Cc1ccc(Nc2nnc(SC(C)C(N)=O)s2)cc1 (stereo unspecified) | 95 | 97 | / | 1
CC(C)C(NC(=O)/C=C/c1ccc(Br)o1)c1ccc2c(c1)OCCCO2 (stereo unspecified) | 74 | 87 | / | -29
Cc1ccc(C)c(S(=O)(=O)N2CCCN(C)CC2)c1 | 83 | 95 | / | -18
Cc1c(C(=O)NC(C)c2ccccc2)sc2ncnc(N(C)C3CCCCC3)c12 (stereo unspecified) | 113 | 86 | 99 | /
COc1cccc(NC(=S)N=Nc2c(O)n(C)c3ccc(S(=O)(=O)N4CCOCC4)cc23)c1 | 95 | 84 | 103 | -29
Cc1cc(C)nc(SCCn2c(N3CCCC3)nc3c2c(=O)n(C)c(=O)n3C)n1 | / | / | 106 | -16
COc1cc(OC)nc(NC(C)=O)n1 | 100 | 81 | 102 | 0
Cc1cc(NCc2cccnc2)n2nc(C(F)(F)F)c(-c3ccc(Cl)cc3)c2n1 | / | / | 105 | 10
CC1=C(C(=O)Nc2cccc(C(F)(F)F)c2)C2(CCN(C(C)C)CC2)OC1=O | 94 | 92 | 99 | /
C=CCN(Cc1nc(-c2ccccc2)no1)C(=O)COc1ccccc1 | 112 | 89 | 101 | 12
Cc1cccc(N(C)S(=O)(=O)c2ccc3c(c2)C(C)(C)C(=O)N3C)c1 | 130 | 76 | 101 | /
O=C1CCC2(C(=O)NC34CC5CC(CC(C5)C3)C4)SCCN12 (stereo unspecified) | 74 | 85 | / | -36
COc1ccc(OCC#CCOc2ccccc2)cc1 | 113 | 98 | 108 | 0
O=C1CSC(=O)N1Cc1cc2c(cc1Cl)OCO2 | 107 | 89 | 102 | 4
C=CCn1c(=O)/c(=C/c2ccc(-c3ccc(Br)cc3)o2)s/c1=C(/C#N)c1nnc2n1CCCCC2 | 106 | 99 | / | 8
Cc1cc2nccc(-c3cccnc3)n2n1 | 106 | 103 | 107 | -2
CCC(CC)C(=O)Nc1nc(C)ns1 | / | / | 102 | 7
NS(=O)(=O)c1ccc(CCN2C(=O)CCC2=O)cc1 | 89 | 98 | / | 0
N[C@@H]1[C@@H](O)[C@H](O)[C@@H](CO)O[C@H]1O | 87 | 84 | / | -13
CCOC(=O)c1cnn(-c2ccc(C(=O)O)cn2)c1N | / | / | 104 | -22
Cc1cccc(Cn2cccc2CNS(=O)(=O)Cc2ccccc2)c1 | / | / | 111 | -30
O=C(CCC(=O)c1cccs1)NCc1ccccc1 | 95 | 96 | / | 10
CCCC12CN3CC(CCC)(CN(C1)C3c1c(C)[nH]c(=O)[nH]c1=O)C2=O (stereo unspecified) | 94 | 85 | 101&97 | 3&-13
COc1ccc(NC(=O)CCc2ccccc2)cc1CN1CCn2c(nc3ccccc32)C1 | / | / | 98 | -2
CCC(=O)O[C@]1(C(=O)CCl)[C@@H](C)C[C@H]2[C@@H]3CCC4=CC(=O)C=C[C@]4(C)[C@@]3(F)[C@@H](O)C[C@@]21C | 105 | 80 | 103 | 0&-6
O=C(C1CCCN(S(=O)(=O)c2cccc3nonc23)C1)N1CCN(c2ccc(F)cc2)CC1 (stereo unspecified) | 99 | 82 | 96 | /

Seven compounds drawn at random from those above:
Structure | Sa growth 42C | Sa growth 42C second temp | GIV-Gai inh | HCMV NEC inh
Cc1cccc(Cn2cccc2CNS(=O)(=O)Cc2ccccc2)c1 | / | / | 111 | -30
NS(=O)(=O)c1ccc(CCN2C(=O)CCC2=O)cc1 | 89 | 98 | / | 0
CCCC12CN3CC(CCC)(CN(C1)C3c1c(C)[nH]c(=O)[nH]c1=O)C2=O (stereo unspecified) | 94 | 85 | 101&97 | 3&-13
O=C(C1CCCN(S(=O)(=O)c2cccc3nonc23)C1)N1CCN(c2ccc(F)cc2)CC1 (stereo unspecified) | 99 | 82 | 96 | /
O=C(CCC(=O)c1cccs1)NCc1ccccc1 | 95 | 96 | / | 10
C=CCn1c(=O)/c(=C/c2ccc(-c3ccc(Br)cc3)o2)s/c1=C(/C#N)c1nnc2n1CCCCC2 | 106 | 99 | / | 8
CCC(CC)C(=O)Nc1nc(C)ns1 | / | / | 102 | 7

(further entries)
Structure | Sa growth 42C | Sa growth 42C second temp | GIV-Gai inh | HCMV NEC inh
CCCn1c(SCC(=O)c2ccc3c(c2)OCCO3)nnc1-c1ccco1 | 99 | 70 | 100 | -15
Nc1cc(=O)[nH]c(=O)n1-c1cccc(Cl)c1 | 99 | 99 | 107 | -19
N#Cc1ccc(-c2cccc(C(F)(F)F)c2)nc1Cl | / | / | 102 | -2
COc1ccc2c(c1)c1c(c(=O)n(-c3cc(Cl)ccc3C)c(=O)n1Cc1ccc(F)cc1)n2C | 79 | 82 | 111 | /
CCOC(=O)c1cc(-c2ccc(F)cc2)n(CCC(=O)NC2CCCCC2)c1C | 103 | 81 | 104 | /
CCNC1CC(=O)N(c2ccc(C(=O)OCC)cc2)C1=O (stereo unspecified) | 70 | 82 | 109 | -7
Nc1c(Nc2cccc(C(=O)O)c2)c2ccccc2oc1=O | 102 | 89 | 97 | -70
NS(=O)(=O)c1ccc(CNc2ccc3ccccc3n2)cc1 | 90 | 93 | / | -14
C[C@H](Cc1ccc(O)c(O)c1)[C@@H](C)Cc1ccc(O)c(O)c1 | / | / | 99 | -3
COc1cccc(C=Nc2cccc(NC(=O)c3ccc(F)cc3)c2)c1O | 71 | 93 | 109 | /
N#Cc1ccc(/C=N/n2cnc3sc4c(c3c2=O)CCC4)cc1 | 95 | 85 | / | -3
CNc1nc(Nc2ccc([N+](=O)[O-])cc2)nc(OCC(F)(F)C(F)F)n1 | / | / | 98 | -22
CC(C)(C)N1C(=O)NC(=O)/C(=C\c2ccco2)C1=O | 99 | 86 | 101 | 4
Cc1cc(C(C)(C)C)cc(C(C)(C)C)c1NC(=O)/C=C/C(=O)O | 78 | 77 | / | -22
Cc1oc(-c2ccccc2)nc1CN1CCN(C(=O)Nc2ccc(Cl)cc2)CC1 | / | / | 105 | 5
CCS(=O)(=O)N1CCCC(C(=O)NCc2cccc(OC)c2)C1 (stereo unspecified) | 105 | 92 | 106 | -23
Cc1cccc2c(C(=O)NC(C)(C)C)cc(-c3ccccc3)nc12 | 120 | 18 | / | -1
CCNS(=O)(=O)c1ccc(NC(=O)c2ccccc2OCC)cc1 | 113 | 102 | 100 | -3
CC(C)(C)NC(=O)N1CCC(Nc2nccc(C(F)(F)F)n2)CC1 | 100 | 87 | 107 | 8
O=c1[nH]c2ccccc2nc1C(F)(F)F | / | / | 104 | -59
COc1ccc(N2C(=O)NC(=O)/C(=C/c3cc(C)n(-c4ccccc4)c3C)C2=O)cc1 | / | / | 106 | -16
CC(C)C1/C(=N/O)CC(c2ccccc2)NC1c1ccccc1 (stereo unspecified) | 98 | 87 | 99 | -13
Cc1c(Cl)c(=O)oc2cc(OCC(=O)N3CCCC(C)C3)ccc12 (stereo unspecified) | 96 | 90 | / | -61
CN(C1CCS(=O)(=O)C1)S(=O)(=O)c1cccc2nsnc12 (stereo unspecified) | 87 | 92 | 111 | -76
NC(=O)C1CCCN(C(=O)CCC(=O)c2cccs2)C1 (stereo unspecified) | 106 | 103 | / | -10
O=C(c1ccc2c(c1)OCO2)c1cn(Cc2ccc(F)cc2)c2cc3c(cc2c1=O)OCO3 | 76 | 74 | 98 | 3
Cc1cccc(Nc2c(-c3ccccc3)c(=O)c2=O)c1 | / | / | 110 | -37
COC(=O)c1ccc(Cn2c(SCC(=O)N(C)c3ccccc3)nc3ccccc32)cc1 | 101 | 88 | 101 | /
CCOc1ccc(OCC)c(NC(=O)CCc2c(C)nn(-c3cc(N4CCCC4)ncn3)c2C)c1 | / | / | 102 | -10
Cc1ccc(-c2n[nH]c(CNC(=O)c3ccc(F)c(F)c3)n2)cc1 | 102 | 80 | 98 | -6
O=C1NC2(CCCCC2)Oc2ccccc21 | 99 | 95 | 110 | -3
CC1=C(C(=O)OCCc2ccccc2)C(c2ccc(OCc3ccccc3)cc2)NC(=O)N1 (stereo unspecified) | / | / | 101 | -12
COc1ccc(CCC(=O)Nc2cccc(N3CCCS3(=O)=O)c2)cc1 | / | / | 98 | -9
Cc1ccc(NC(=O)CC2SC(=Nc3ccc(S(N)(=O)=O)cc3)NC2=O)cc1 (stereo unspecified) | 100 | 94 | 103 | -18
Nc1nnc(SCC(=O)n2c3ccccc3c3ccccc32)s1 | 94 | 82 | 100 | -7
Cc1ccc(CN(C)c2ccc(S(=O)(=O)N3CCCC3)cn2)cc1 | 91 | 92 | / | -18
O=C(NCCc1nc2ccccc2[nH]1)c1ccccc1 | 112 | 84 | / | -25
COc1ccc(-c2ccc3c(N)c(C(=O)Nc4cccc(C(F)(F)F)c4)sc3n2)cc1OC | 90 | 64 | 113 | /
Cc1cccc(C)c1Nc1c(-c2ccc(Cl)cc2)nc2sccn12 | / | / | 100 | -18
CC1Cc2ccccc2N1C(=O)CSc1nnc(COc2ccccc2Cl)o1 (stereo unspecified) | 95 | 97 | / | -11
C/C=C/C=N/Nc1nnc2c(n1)[nH]c1ccccc12 | 106 | 112 | 112 | -13
O=C1OC(c2ccccc2)OC(=O)C1=Cc1ccc(-c2cccc(Br)c2)o1 (stereo unspecified) | 96 | 89 | 64* | /
CCCOc1ccc2c(c1)C(=O)c1cc(OCC(=O)O)ccc1-2 | 103 | 68 | 80* | -181
C=CCNC(C(=O)Nc1cccc(OC)c1)c1ccccc1 (stereo unspecified) | 102 | 95 | / | -6
COc1ccccc1-c1nnc(SC)n1-c1ccccc1 | 99 | 91 | 105 | -5
Cc1ccc(NC(=O)N2CCCn3c(SCC(=O)c4ccccc4)nnc32)cc1 | 91 | 80 | 107 | -42
COc1ccc(CNc2nc3nc(CN4CCOCC4)cc(=O)n3[nH]2)cc1OC | / | / | 100 | -18
CCCC(=O)Nc1cc(-c2nc3cccnc3s2)ccc1C | 93 | 108 | 106 | -13
CC(C)CCNC(=O)C1CCN(S(=O)(=O)c2ccc3nc4c(c(C(=O)O)c3c2)CCCCC4)CC1 | 101 | 86 | 98 | -21
CC(C)C(NS(=O)(=O)c1ccc2c(c1)oc(=O)n2C)C(=O)N1CCN(c2ccc(Cl)cc2)CC1 (stereo unspecified) | 91 | 90 | 99 | -14
CCOC(=O)c1cc(NC(=O)N(C(C)C)C2CCN(C)CC2)c(C)nc1C | / | / | 94 | -9
O=c1[nH]c2cc3c(cc2c(=O)n1Cc1nc(-c2cccc(Br)c2)no1)OCO3 | / | / | 109 | -9
COc1ccc(S(=O)(=O)Nc2ccc3oc4c(c3c2)C(=O)CC(C)(C)C4)cc1 | 111 | 107 | 107 | 14
CC(/C=N/NC(=O)c1cc(-c2ccc3c4c(cccc24)CC3)n[nH]1)=C\c1ccco1 | 84 | 65 | 101 | -33
